Bioassay records (PubChem)
CSC inhib: cancer stem cell inhibition | cancer stem cell-like cells viability, luminescence | inhibition, % at 7.5 µM | hit rate 1.1% among 300,000 | AID 2717;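 active = mean at 75% or more and at least half the replicates too; tested in HMLE shEcad cells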;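 note: 0% = median of negative and 100% = median of positive control wells; the first replicate is given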
eIF4H inh: inhibitors of RNA binding by human eIF4H; AID 2012; inhibition, % at 35 µM; hit rate 0.94% among 290,000; Q15056; eIF4H fluorescence polarization binding assay;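 active = 50% or more with normal probe brightness, or confirmed in later tests; about a fifth of its hits are not listed in these tables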;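 note: calls also rest on retests at 20 µM and on dose response follow-up; 0% = protein and probe with vehicle and 100% = probe without protein; strong numbers were not always called active; many hits fall short of the cut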
MT1-MMP act inh: inhibitors of human MT1-MMP activation. P50281. HT1080 RFP-PRO-GFP cells, GFP/RFP ratio fluorescence, overnight; percent of plate control window, DMSO zero. GFP/RFP ratio change, % at 20 µM. hit rate 0.061% among 360,000. AID 651647;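 active = GFP/RFP ratio change of at least 30% with cell ATP level not reduced by more than half and red fluorescence within 50% of control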; note: strong numbers were not always called active
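Material – HT1080 RFP-PRO-GFP cells · Control set – DMSO wells and RFP-L50D-GFP cells · Incubation – overnight cell settling, then overnight compound exposure, 37 °C, 5% CO2 · Compound dosing – single-point 20 µM compound, 1% DMSO · Read-out – GFP/RFP fluorescence ratio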
UUG fidelity: alters start codon recognition fidelity in yeast; S. cerevisiae UUG-firefly luciferase reporter, luminescence/redox ratio; activity score, % at 18.7 µM; hit rate 0.13% among 350,000; AID 602363;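 active = replicate mean at a twofold rise or more, about +100% in these data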;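 note: firefly luciferase made from a UUG start codon reports start codon fidelity; reporter light over untreated wells divided by growth signal over untreated wells; some hits fall short of that in this replicate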
Rce1 inhib: blocks yeast Ras-converting enzyme. Q03530. yeast membranes, quenched prenylated peptide cleavage fluorescence. calls only. hit rate 0.27% among 290,000;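 active = fall in fluorescence gain of 50% or more versus controls, with final raw signal at or below 3038400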;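 note: plate controls were neutral control wells for no effect and wells lacking membranes for full effect; tested at 10 µM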
Target sequence (Q03530 whole entry, looked up): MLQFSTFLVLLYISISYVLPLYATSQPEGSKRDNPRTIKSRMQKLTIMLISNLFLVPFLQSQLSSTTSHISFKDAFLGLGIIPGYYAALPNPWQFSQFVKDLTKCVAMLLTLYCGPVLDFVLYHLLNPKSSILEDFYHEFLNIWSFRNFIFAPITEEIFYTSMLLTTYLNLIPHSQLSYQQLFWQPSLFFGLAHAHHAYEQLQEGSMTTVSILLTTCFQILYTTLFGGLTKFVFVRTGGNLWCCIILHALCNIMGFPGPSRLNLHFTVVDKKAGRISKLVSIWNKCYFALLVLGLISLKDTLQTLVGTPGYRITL
Env fusion inh: HIV envelope-mediated fusion inhibition; HeLa-JRFL Env/CEM21 cell fusion, luciferase; inhibition, % at 12.3 µM; hit rate 1.1% among 360,000; AID 651610;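 active = mean replicate inhibition score of at least 50 and every replicate individually at or above 50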;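 note: 0% = plate neutral controls and 100% = maraviroc near 300 nM; one replicate is shown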
PABP FP inh: blocks human PABP binding to poly(A) RNA | P11940 | AID 2014 | hit rate 1% among 290,000 | inhibition, % at 35 µM | fluorescence polarization;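 active = 50% or more with normal probe brightness, or confirmed in later tests; about a fifth of its hits are not listed in these tables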;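 note: calls also rest on retests at 20 µM and on dose response follow-up; controls were probe without protein and protein plus probe with vehicle; some compounds called inactive have numbers as strong as hits; many hits fall short of the cut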
MT1-MMP act inh RFP: recorded beside MT1-MMP act inh, whose call it bears; RFP signal change, %; measured here: RFP expression control read;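 0 = vehicle wells; hits needed this value within 50% of zero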
The depositor's hits bear a star; i = inactive; nt = no result given; & = joins results of further samples. Only part of the results is shown; the hit share may differ from the screen's.

SMILES	CSC inhib	eIF4H inh	MT1-MMP act inh	MT1-MMP act inh RFP	UUG fidelity	Rce1 inhib	Env fusion inh	PABP FP inh
CCCOc1ccc(C(=O)OCC(=O)c2c(N)n(C)c(=O)n(C)c2=O)cc1OC	-4	3	-2	-5	-6	i	-4	-12
CC(=O)c1oc2ccccc2c1NC(=O)COC(=O)c1ccc(-n2nc(C)cc2C)cc1	-7	3	0	-2	nt	i	26	-15
c1cc(CNc2ccc3c(c2)OCO3)ccn1	nt	21	-11	7	-20	i	-4	37
COc1cc(OC)c(NC(=O)CC(C)=O)cc1Cl	-10	2	1	0	nt	i	nt	8
CC(=O)c1c(C)[nH]c(C(=O)OCC(=O)Nc2cc(C(F)(F)F)ccc2N2CCOCC2)c1C	-5	-7	1	-7	-8	i	nt	23
CCN(CC)CCNC(=O)c1ccc(NC(=O)Nc2cccc3ccccc23)cc1	-21	-1	-3	0	-11	i	20	2
COc1cc(-c2nnc(-c3cccs3)o2)cc(OC)c1OC	-6	2	3	3	1	i	nt	3
Cc1ccc(S(=O)(=O)N2CCN=C2SCc2c(F)cccc2Cl)cc1	10	-3	-1	1	-21	i	4	8
COc1ccc(Cc2noc(CN(C)CCN3CCc4ccccc4C3)n2)cc1OC	-11	8	-1	3	-8	i	12	-4
COc1ccccc1N(CC(=O)Nc1ccc2c(c1)OCCO2)S(C)(=O)=O	-5	-11	4	5	-14	i	nt	-3
c1csc(-c2nnc(NC3CCCCC3)c3ccccc23)c1	0	0	-6	-5	-3	i	-18	0
Cc1ccc(C)c(N2CCN(C(=O)C3CCN(S(=O)(=O)c4c(C)noc4C)CC3)CC2)c1	0	-1	6	-27	1	i	-7	1
CN(CC(=O)Nc1ccc(F)cc1)C(=O)Cn1nnc(-c2ccccc2)n1	-1	-6	-2	-4	-20	nt	0	-1
Nc1cccc(-c2nc3cc(S(=O)(=O)c4ccc5oc(-c6cccc(N)c6)nc5c4)ccc3o2)c1	-20	-14	-10	-9	-20	i	-107	-11
CC(C)N1CCC(N2CCN(Cc3ccc4nsnc4c3)CC2CCO)CC1 (stereo not drawn)	-2	2	2	3	-4	i	-269	-5
COCCNC(=O)c1ccccc1NC(=O)COc1ccccc1	-2	10	3	0	-3	i	-59	-1
COc1ccccc1N(C(=O)c1snc(C(N)=O)c1N)C(C(=O)NC1CCCCC1)c1cccc(OC)c1OC (stereo not drawn)	14	-6	-14	-10	-11	i	-8	-1
O=C(CSCCS(=O)(=O)c1ccc(Cl)cc1)Nc1ccccc1	-4	8	2	-3	nt	i	9	-1
CCCCCCC(NC(=O)Cc1ccc2ccccc2c1)C(=O)O (stereo not drawn)	nt	nt	-1	4	-22	nt	20	nt
O=C(CSc1ccc(Cl)cc1)Nc1cccc(-c2nc3ccccc3[nH]2)c1	10	-35	3	4	nt	i	-13	-6
Cc1cc(C)n(C)c(=O)c1C#N	-6	-5	3	7	nt	nt	-6	-7
C=CCN1C(=O)C(Cc2cccc(Cl)c2)S/C1=N/N=C/c1ccco1 (stereo not drawn)	-5	-8	-1	-6	-14	i	nt	-13
O=C(OCn1nnc2ccccc2c1=O)c1ccc2ccccc2n1	nt	2	3	5	-20	i	nt	-2
CC1CCCCC1NC(=O)NC(=O)CCl (stereo not drawn)	-8	8	0	4	-2	i	22	-11
Clc1ccccc1N1CCN(Cc2c[nH]c3ccccc23)CC1	15	nt	-5	0	-18	i	16	nt
O=C(CN1CCC(n2nnc3cc(F)ccc32)CC1)NC1CCCCC1	12	3	-3	0	-12	i	14	-9
COC(=O)c1cc(C(=O)OC)cc(N2C(=O)CC(NNC(=O)c3ccccc3Br)C2=O)c1 (stereo not drawn)	nt	-9	-3	3	-6	i	-7	-9
COc1ccc(C(=O)c2oc3ccc(Br)cc3c2NC(C)=O)cc1	-3	-5	13	3	1&-5	i	nt	-2
COc1cc(NC(=O)c2ccccc2Cl)c2ncccc2c1	51	6	-9	-16	-7	i	-26	-6
COc1ccc2oc(C)c(NC(C)=O)c2c1	-5	-5	-7	3	-19	i	-9	2
O=c1[nH][nH]c(-c2ccccc2)c1C=Nc1ccc(Cl)cc1	48	1	1	-9	-16	i	-65	1
CCOc1ccc2nc(NC(=O)CN3C(=O)NC4(CCCC4)C3=O)sc2c1	0	nt	6	1	nt	i	-6	nt
CCOC(=O)c1oc2ccccc2c1NC(=O)C1CCCCC1	-8	-9	-3	-3	nt	i	nt	-9
Cc1nnc(SCC(=O)NNC(=O)c2ccccc2)n1Cc1ccccc1	nt	nt	0	3	-13	nt	-18	nt
N/C(COc1ccc(Cl)cc1Cl)=N\O	7	-2	-1	-1	nt	i	-12	-3
Cc1onc(-c2ccccc2Cl)c1C(=O)Nc1ccc(OCC(=O)N2CCOCC2)cc1	-14	-2	-2	2	-4	nt	-38	-6
CCn1cnc2cc(NCc3nc4ccccc4n3C)ccc21	-4	8	-1	3	-28	i	nt	-3
COc1ccc(-c2cc3ccccc3cn2)cc1	4	nt	1	-2	-40	nt	nt	nt
COc1cccc(/C=N/NC(=O)c2cc3c(OC)cccc3[nH]2)c1O	nt	-22	-7	-1	-15	i	21	25
COc1cccc(NC(=O)CN(c2ccccc2OC)S(=O)(=O)c2cccs2)c1	13	nt	9	-7	-11	nt	64*	nt
CC(C)(C)OC(=O)N1CCC[C@H]1C(=O)Nc1ccc(C#N)cc1	3	2	nt	nt	-3	i	-1	5
O=C(c1cc2ccccc2o1)N1CCN(Cc2nc3ccccc3s2)CC1	nt	nt	2	1	-19	nt	-12	nt
COCCN(C(=O)COC(=O)C1COc2ccccc2O1)c1c(N)n(Cc2ccccc2)c(=O)[nH]c1=O (stereo not drawn)	-15	nt	2	2	nt	i	nt	nt
Cc1ccc(NC(=O)Cn2c(O)c(N=NC(=O)c3cc4ccccc4cc3O)c3ccccc32)cc1	99*	36	10	-3	1	nt	33	3
COC(=O)CCN(C(=O)c1ccc2c(c1)OCO2)c1ccccn1	-5	-12	3	3	-14	i	nt	-2
CCOc1c(Br)cc(C2NS(=O)(=O)N=C3CCCCCN32)cc1OC (stereo not drawn)	19	2	-3	1	-16	i	-57	-4
COC(=O)CP(=O)(c1ccccc1)c1ccccc1	-5	-15	-1	4	nt	i	nt	-2
COc1ccc(CNC(=O)CN(C)S(=O)(=O)c2ccc(Br)s2)cc1	-9	-3	0	-1	2	nt	8	1

Env fusion inh, what is marked active above.
smiles	MT1-MMP act inh	MT1-MMP act inh RFP	UUG fidelity	Rce1 inhib	Env fusion inh
COc1cccc(NC(=O)CN(c2ccccc2OC)S(=O)(=O)c2cccs2)c1	9	-7	-11	nt	64*

Additional structures
SMILES	CSC inhib	eIF4H inh	MT1-MMP act inh	MT1-MMP act inh RFP	UUG fidelity	Rce1 inhib	Env fusion inh	PABP FP inh
CCN(C[C@H]1N[C@@](CC)(C(=O)OC)[C@H]2C(=O)N(C)C(=O)[C@@H]12)S(=O)(=O)c1ccc(C(C)(C)C)cc1	nt	nt	0	4	-4	nt	-86	nt
C=CCNC(=O)/C(=C/c1ccco1)NC(=O)c1ccc(Br)o1	-8	6	-6	4	-12	i	-18	-3
Cc1ccccc1Nc1nc(Nc2ccccc2C)nc(SC2=NCCS2)n1	16	-10	1	-9	-13	i	nt	-8
Cc1ccc(S(=O)(=O)Nc2cccc(-c3ccc(N4CCCCCC4)nn3)c2)cc1	71	-8	1	-9	-20	i	-68	-6
CC1(CCc2ccccc2)NC(=O)N(CC(=O)Nc2ccccc2)C1=O (stereo not drawn)	-3	-1	13	7	nt	i	-34	1
CCC(C)N(C(=O)CSc1nnc(NC(C)C)s1)C1CCS(=O)(=O)C1 (stereo not drawn)	3	nt	0	3	-9	i	-59	nt
O=C1c2ccccc2NC(c2cccc(Cl)c2)N1N=C1CCCCCC1 (stereo not drawn)	26	-6	-1	-1	-6	i	-40	-8
CCCCC(=O)Nc1nnc(C2=COCCO2)o1	-5	-7	4	4	-18	i	7	-15
O=C(Nc1ccc2oc(=O)ccc2c1)c1cccnc1	-4	11	6	3	-10	i	-80	7
COCc1ccc(-c2c(-c3ccsc3)oc(=O)c3cc(OC)c(OC)cc23)cc1	59	nt	-8	-9	0	nt	-57	nt
CCOC(=O)Oc1c(OC)cc(C(=O)O[C@@H]2C[C@@H]3CN4CCc5c([nH]c6cc(OC)ccc56)[C@H]4C[C@@H]3[C@H](C(=O)OC)[C@H]2OC)cc1OC	15	nt	-20	-3	-25	nt	-115	nt
O=C(NC1CC1)C1=NOC(CNc2ncc(C(F)(F)F)cc2Cl)C1 (stereo not drawn)	-28	3	3	-5	nt	i	nt	-2
CCOCCCNC(=O)c1ccc(-n2c(=S)[nH]c3ccccc3c2=O)cc1	-2	0	4	0	-29	i	1	14
CCOC(=O)c1c(C)[nH]c(C(=O)N/N=C/c2cccc(OC)c2)c1C	50	0	3	-8	nt	i	2	-2
O=[N+]([O-])c1ccccc1S(=O)(=O)NCc1cccnc1	-13	-6	1	3	nt	i	-1	-2
COc1ccc(NS(=O)(=O)c2cc(NC(=O)c3ccncc3)ccc2N2CCOCC2)cc1	-24	0	1	0	1	i	-12	4
O=C(CS(=O)(=O)Cc1ccccc1)Nc1ccccc1Cl	-2	-5	1	2	nt	nt	-5	9
C#CCOCCOCCOCCNc1nc(N2CCN(C(=O)[C@H](CCCCN)n3cc([C@@H](N)CC(N)=O)nn3)CC2)nc(N2CCN(C(=O)[C@H](CCCCN)n3cc([C@@H](N)CC(N)=O)nn3)CC2)n1	nt	nt	12	3	49	nt	-7	nt
O=C(Nc1ccc2[nH]ncc2c1)c1ccc(F)cc1	-1	9	-1	0	-57	i	-48	5
COc1ccccc1N1CCN(C(=O)CCc2c[nH]c3ccccc23)CC1	4	7	-3	0	nt	i	-2	-1
NC(=O)c1ccc(NC(=O)CSc2nncn2-c2ccccc2)cc1	-5	-1	1	6	-16	i	5	-8
CCn1c(=O)cc(C(F)(F)F)[nH]c1=S	-19	9	3	0	nt	i	-6	-8
O=C(Nc1ccc(F)cc1F)c1ccc(-n2cncn2)nc1	-7	-3	2	-1	-14	i	-51	26
O=C(CC(NC(=O)c1ccccc1)c1ccccc1)NCc1ccccc1 (stereo not drawn)	-1	nt	1	4	-15	nt	5	nt
COc1ccc(NC(=O)C2CCCN(S(=O)(=O)c3cccs3)C2)cc1OC (stereo not drawn)	-7	-1	0	2	-8	i	1	0
Cc1oc(-c2ccccc2Cl)nc1CSc1nc2c(c(=O)[nH]1)CCC2	-9	-6	0	1	-2	i	-2	1
Cc1ccc(N2C(=O)C(CN3CCOCC3)C2c2ccccc2)cc1 (stereo not drawn)	15	-3	-2	-2	4	i	4	1
O=c1[nH]nc(SCc2nnc(-c3ccc([N+](=O)[O-])cc3)o2)n1C1CCCCC1	-14	-2	1	0	nt	i	6	5
COCCNC(=O)CN(c1cccc(OC)c1)S(=O)(=O)c1ccc(C)cc1	-8	-2	4	4	-18	i	-34	-9
Cc1ccc(NC(=O)C(=O)Nc2ccc(C)cn2)nc1	2	-7	-1	4	-23	i	1	-6
Cc1ccccc1C(=O)NC(=S)NCCC1=CCCCC1	6	1	1	2	nt	i	-12	-3
CCN1CCN(C(=O)CCCn2c(C)c3cnn(-c4ccccc4)c(=O)c3c2C)CC1	-5	-11	6	2	-14	i	nt	-17
O=C1CCCCC(=O)c2ccccc2N1	-24	-4	2	3	nt	i	-59	0

Compound profiles (already shown). Screens in order: CSC inhib | eIF4H inh | MT1-MMP act inh | MT1-MMP act inh RFP | UUG fidelity | Rce1 inhib | Env fusion inh | PABP FP inh
Shown for CC(C)(C)OC(=O)N1CCC[C@H]1C(=O)Nc1ccc(C#N)cc1 : 3 | 2 | nt | nt | -3 | i | -1 | 5
Shown for COc1ccccc1N1CCN(C(=O)CCc2c[nH]c3ccccc23)CC1 : 4 | 7 | -3 | 0 | nt | i | -2 | -1
Shown for CCN(C[C@H]1N[C@@](CC)(C(=O)OC)[C@H]2C(=O)N(C)C(=O)[C@@H]12)S(=O)(=O)c1ccc(C(C)(C)C)cc1 : nt | nt | 0 | 4 | -4 | nt | -86 | nt
